# VACV Venus inh: qHTS for Stage-Specific Inhibitors of Vaccinia Orthopoxvirus: Venus Reporter Primary qHTS | Vaccinia virus Venus reporter expression, fluorescence | Potency, µM (top dose mostly 36.5 µM), for the others: at the top dose activity change, negative = inhibition, usual class: inhibitors | 330,000 compounds, 0.46% hits | AID 720580, 2013; active means well fitted inhibition curve with a large enough effect; inconclusive means small, poorly fitted or top-dose-only effect; inactive means no such curve, though single readings can be large or run the other way; tested in A549 cells; note: nearly all actives have a fitted effect of over 30% in size; inactives centre near -10
# Vaccinia mCherry: qHTS for Stage-Specific Inhibitors of Vaccinia Orthopoxvirus: mCherry Reporter Primary qHTS; AID 720579, 2013; Vaccinia virus mCherry reporter infection, fluorescence; about a quarter of the inactives have no number; Potency, µM (doses to about 36.5 µM), without a hit: at the top dose activity change, negative = inhibition, hits mostly inhibitors; 310,000 compounds, 0.63% hits; active = well fitted inhibition curve with a large enough effect; inconclusive = small, poorly fitted or top-dose-only effect; inactive = no such curve, though single readings can be large or run the other way; tested in A549 cells; note: nearly all actives have a fitted effect of over 35% in size; inactives centre near -10
# * = called active by the depositor; i = inactive; ? = inconclusive; . = no result given; [ ] = another dose, or the depositor's remark. % is set by controls: 0 for no effect and ±100 for the full control effect; potency is the fitted concentration of half-maximal effect.
smiles	VACV Venus inh	Vaccinia mCherry
Cc1ccc2c(c1)-c1onc(C(=O)N3CCN(c4cc(Cl)ccc4C)CC3)c1CO2	1.8%	0.2%
FC(F)(F)c1ccccc1Cc1c(C2CCCCC2)nc2c3ccccc3ccn12	1.0%	-3.3%
C#CCN(C[C@@H]1[C@@H](OC(=O)NCc2ccccc2F)[C@@H](OC(=O)NCc2ccccc2F)CN(C(=O)OC(C)C)N1C(=O)OC(C)C)S(=O)(=O)c1ccc(C)cc1	-16.7%	-0.9%
Cc1cccc(N(C)C(=O)c2cc3cc4ccc(C)cc4nc3o2)c1	-22.5%	-25.7%
COc1ccc(C(CC(=O)Nc2ccc(C)cn2)N2Cc3ccccc3C2=O)cc1 (stereo not given)	-8.5%	-29.7%
COc1cccc(N(C(=O)CNC(=O)c2ccco2)C(C(=O)NC2CCCC2)c2ccncc2)c1 (stereo not given)	-10.1%	-11.9%
Cc1nn(Cc2ccccc2Cl)c(Cl)c1/C=C/C(=O)OCC(=O)NC(N)=O	?	.
O=C(c1ccccc1)N1CC(COc2ccccc2)OC(c2cccnc2)O1 (stereo not given)	-0.3%	-12.3%
O=C(Nc1nc(-c2cccs2)c(C(=O)C(F)(F)F)s1)c1ccccc1	-20.4%	?
Cc1ccc(CNC(=O)N2CCC(CN3CCC(C)CC3)CC2)cc1	-4.4%	-2.5%
O=c1c2oc3ccccc3c2[nH]c(=S)n1-c1ccc(F)cc1	-0.9%	-13.1%
CCCNCc1cc(OC)c(OCc2ccccc2)cc1Br	-22.2%	-2.5%
CC(C)c1cccc(-c2csc(C(O)c3ccc(F)cc3)n2)c1 (stereo not given)	-23.9%	-9.4%
O=S(=O)(Nc1cc(F)ccc1F)c1ccc2[nH]c3c(c2c1)CCCC3	-18.2%	-17.2%
O=C(NCCc1ccncc1)Nc1ccccc1	-3.2%	.
CCOc1ccccc1NC(=O)C(=O)c1cc(C)n(-c2cccc(C)c2C)c1C	-7.7%	-8.8%
CC(C)[C@H](NC(=O)N1c2ccccc2NC(=O)[C@@H]1C(C)C)C(=O)N[C@H](C(=O)O)c1ccccc1	-5.6%	-9.0%
CCOC(=O)c1cc(NC(=O)COc2ccc([N+](=O)[O-])cc2)cc(C(=O)OCC)c1	-15.2%	7.2%
COc1ccc(CNc2ncnc3cc(Cl)ccc23)cc1	-22.3%	-24.0%
CCNC(=O)C1(C)CCN(C(=O)c2cccnc2SC)C1 (stereo not given)	4.9%	2.0%

# Two of the compounds above, field by field.
COc1ccc(C(CC(=O)Nc2ccc(C)cn2)N2Cc3ccccc3C2=O)cc1 (stereo not given)
  VACV Venus inh: -8.5%; Vaccinia mCherry: -29.7%
COc1cccc(N(C(=O)CNC(=O)c2ccco2)C(C(=O)NC2CCCC2)c2ccncc2)c1 (stereo not given)
  VACV Venus inh: -10.1%; Vaccinia mCherry: -11.9%

# Remaining list, next part
smiles	VACV Venus inh	Vaccinia mCherry
C=CCO/N=C(/C)c1c(O)c(CC)c(-c2ccccc2)n(-c2ccccc2)c1=O	3.7%	-4.3%
CC1(c2ccccc2)NC(=S)N2C1NC(=S)N2c1ccccc1 (stereo not given)	-16.4%	-13.4%
CCC(C(=O)NC1CCCC1)N(C(=O)c1snc(C(N)=O)c1N)c1ccc(C)cc1C (stereo not given)	-1.6%	-17.2%
CNC(=O)CN(c1ccc(Oc2ccccc2)cc1)S(=O)(=O)c1ccc(C)cc1	-13.4%	i
C=CCSC1=NN2CCS(=O)(=O)N=C2S1	-7.2%	i
O=S(=O)(c1ccccc1)N1CCN(Cc2nnc(-c3ccccc3)o2)CC1	-16.8%	-7.9%
COc1ccccc1-c1c(C)c(C)nc(N)c1C#N	-13.3%	-21.5%
CC(=O)Oc1c2occc2cc2ccc(=O)oc12	-11.2%	.
Cc1nn(C(=O)c2cccs2)c(C)c1CN1C(=O)c2ccccc2C1=O	-12.3%	-12.8%
S=C(NCc1ccccc1)NCc1ccc(CNC(=S)NCc2ccccc2)cc1	-5.5%	-11.9%
CC(C)c1onc(C(=O)N(C)Cc2ccccc2)c1[N+](=O)[O-]	-4.0%	-9.3%
CCN(CC)CCOC(=O)c1ccc(Nc2c3c(nc4ccccc24)CCC3)cc1	-2.9%	i
CCCn1c(SCC(=O)Nc2nc(-c3ccc(OC)cc3)cs2)nc2c1c(=O)n(C)c(=O)n2C	-4.0%	6.5%
COc1ccccc1C(=O)N(Cc1cc2cc3c(cc2nc1N(C)C)OCO3)CC1CCCO1 (stereo not given)	-2.5%	-7.8%
CCN(Cc1ccccc1)C(=O)Cn1c(=O)n(Cc2ccccc2)c(=O)c2c1c1cc(OC)ccc1n2C	-0.5%	-2.3%
CC(=O)c1cc(C#N)c(SCC(=O)O)nc1C	-3.5%	-11.6%
CCc1ccc(OCC(=O)O/N=C(\N)Cc2ccc([N+](=O)[O-])cc2)cc1	3.0%	i
CCc1nnc(NS(=O)(=O)c2ccc(NC(=S)NC(=O)c3ccc(F)cc3)cc2)s1	-4.3%	i
CCCC(CCC)C(=O)Nc1ccc2c(c1)N(C(=O)CN1CCN(C)CC1)c1ccccc1CC2	-11.7%	-18.7%
COc1ccc(-c2nnc(NC(=O)c3ccc(S(=O)(=O)N4COCC4(C)C)cc3)o2)cc1	?	-24.9%
COc1cc(C(=O)COC(=O)c2ccncc2)cc(OC)c1OC	5.9%	i
CSc1ccc(/C=C/c2nc3ccccc3n2S(=O)(=O)c2cccc(Cl)c2)cc1	-29.8%	?
Cc1cc2c(N=NC(=O)CCc3ccccc3)c(O)[nH]c2cc1Br	-15.6%	-8.5%
COc1ccc(S(=O)(=O)N(CC(=O)NCC2CCCO2)c2ccccc2)cc1OC (stereo not given)	-3.6%	-13.6%
Cc1cc(C2C(C#N)=C(N)SC(N)=C2C#N)c(C)s1	5.9%	-7.9%
O=S(=O)(c1ccccc1Br)N1CCN(c2ncccn2)CC1	1.3%	-3.4%
CNC(=O)c1cnc2sc(N3CCCCCC3)nn2c1=O	-2.3%[7.34 µM]	-11.6%[7.34 µM]
CS(=O)(=O)N(CC(=O)NCCSCc1cccc(Cl)c1)c1ccc2c(c1)OCO2	1.8%	.
CCC(Sc1nc2nccnc2c(=O)n1Cc1ccccc1Cl)C(=O)NC1CCCCC1 (stereo not given)	-3.2%	i
O=C(NCc1cccc(Cl)c1)c1ccc2c(c1)nc1n2CCOC1	-16.3%	-18.1%
O=C(c1cc(-c2ccccn2)nc2c(Cl)cccc12)N1CCN(S(=O)(=O)c2ccccc2)CC1	-17.7%	-0.8%
CC(C)=C(NC(=O)c1ccccc1)C(=O)NCCc1nc2ccccc2[nH]1	-9.4%	-23.4%
CC(Oc1ccccc1F)c1ccnc2nc(/N=C/N(C)C)nn12 (stereo not given)	-5.0%	-10.2%
O=C(C1CCCN1S(=O)(=O)c1ccc(Cl)c(Cl)c1)N1CCCCC1 (stereo not given)	-13.9%	.
O=C1C2CCCCC2C(=O)N1c1cccc(OS(=O)(=O)c2ccccc2)c1 (stereo not given)	-5.7%	-8.1%
COc1ccc(C2CC(c3ccccc3Cl)=NN2c2ccc(S(N)(=O)=O)cc2)cc1 (stereo not given)	?	12.6µM*
CCC(=O)c1c[nH]c(C(=O)NCc2ccccc2OC)c1	-10.7%	-13.3%
CC(C)c1ccc(S(=O)(=O)N2CCN(C(=O)CCc3nc4ccccc4c(=O)[nH]3)CC2)cc1	-15.5%	-12.3%
Cn1c(SCC(=O)NC(=O)NCc2ccco2)nnc1C(F)(F)F	0.0%	i
CC(C)Oc1ccc(Cc2c(O)[nH]c(=O)[nH]c2=O)cc1	-8.5%	-14.5%
CCOc1ccc(-c2cc(C(=O)NCc3ccccc3)[nH]n2)c(C)c1	-9.0%	-4.6%
COc1ccc(Cl)cc1-n1nnc(-c2nc(-c3ccc4c(c3)OCO4)no2)c1C	-6.7%	-9.4%
Cn1c(N)c(C(=O)c2cc(-c3ccccc3)nc3ccccc23)c(=O)n(C)c1=O	-9.6%	.
COc1cc(OC)cc(C(=O)N[C@H](C(=O)OCC(=O)NC(=O)NC(C)(C)C)C(C)C)c1	-9.1%	i
O=C(Nc1nnc(SCc2cc(=O)c3ccccc3[nH]2)s1)c1ccccc1	-9.3%	-8.2%
O=C(Nc1ccc(C(F)(F)F)cc1)C1(c2ccccc2)CC1	-6.2%	-9.2%
O=C(C1CC(=O)N(c2ccc3c(c2)OCCO3)C1)N1CCN(c2cccc(C(F)(F)F)c2)CC1 (stereo not given)	?	-17.8%
CCOC(=O)c1nn(-c2ccc(C)cc2)c2nc(Nc3ccccc3)cc(=O)n12	-9.0%	.
Cc1cccc(CN2CCN(C(=O)c3ccccc3F)CC2)c1	-2.0%	-9.7%
N/C(=N\OC(=O)C12CC3CC(CC(C3)C1)C2)c1cccnc1	-8.4%	i
CN(C)Cc1c(OC(=O)c2ccc(N)cc2)ccc2ccccc12	-8.3%	?
OCC1(CCc2ccccc2)CCN(Cc2cc(Cl)ccc2O)CC1	-7.8%	-7.3%
Cc1c(NC(NC(=O)CF)C(Cl)(Cl)Cl)c(=O)n(-c2ccccc2)n1C (stereo not given)	-10.7%	6.4%
COC(=O)c1ccccc1NC(=O)COc1ccc2c(c1)OCO2	-14.8%	-4.0%
O=c1n(-c2ccccc2)c(=O)n2n1CC(O)C2	6.2%	1.4%
O=C(NCC(c1ccco1)N1CCc2ccccc2C1)c1ccc([N+](=O)[O-])cc1 (stereo not given)	-15.0%	i
COc1ccc(OC)c(NC(=O)C2CC(/C=C/c3ccccc3)=NO2)c1 (stereo not given)	-3.5%	-5.5%
O/N=C(\c1ccc(Cl)cc1)c1ncc(C(F)(F)F)cc1Cl	?	-13.4%
CSc1nnc(-c2ccccc2)o1	-16.2%	-38.1%
O=C(NCc1cccnc1)c1ccc(-c2cccc(Cl)c2Cl)o1	-7.7%	i

# Remaining list, next part.
smiles	VACV Venus inh	Vaccinia mCherry
OC[C@@H]1CN(Cc2cccc(C(F)(F)F)c2)C[C@H](n2cnc3c(NCc4ccncc4)ncnc32)O1	-4.1%	i
CNC(=O)c1c(NC(=O)CCS(=O)(=O)c2ccc(C)cc2)sc(C)c1C	-3.7%	-8.5%
Cc1cc(NC(=O)c2cccn(Cc3ccccc3)c2=O)no1	6.7%	-6.1%
CCN(CC)C(=O)c1c(C)[nH]c(=S)c(C#N)c1-c1ccco1	8.2%	9.5%
COc1ccc(C(=O)CC(c2ccc(OC)c(OC)c2)c2c(O)c3ccccc3oc2=O)cc1OC (stereo not given)	-16.7%	i
COc1ccc(NC(=O)c2noc3c2CCCCC3)cc1	-0.8%	7.0%
OC(c1ccc(F)c(F)c1)c1nc(-c2csc3ccccc23)cs1 (stereo not given)	-20.2%	?
CC[C@]1(C(=O)OC)[C@H]2C(=O)N(C)C(=O)[C@H]2[C@H]2CN=C(SC)N21	-4.8%	i
Cc1cc(N2CCCCC2)n2nc(C)c(-c3ccccc3)c2n1	-28.4%	.
c1ccc2c(c1)[nH]c1c(N3CCCC3)ncnc12	?	.
Cc1ccc(C)c(NC(=O)c2cnn(-c3ccccc3)c2C)c1	-10.3%	-10.6%
Cc1nn(Cc2ccccc2)c(C)c1NC(=O)c1cc(-c2cccs2)on1	-13.2%	-17.0%
CCN1CCN(S(=O)(=O)c2ccc(C(=O)Nc3sc4c(c3C(N)=O)CCN(CC)C4)cc2)CC1	-29.1%	-17.0%
COc1ccc(C=NNc2nc3ccccc3s2)cc1	5.6%	?
Cc1ccc(NC(=O)C2(C)CCN2C(=O)Cc2ccc(-c3ccccc3)cc2)cc1 (stereo not given)	-21.4%	2.8%
Cn1c(CN2CCCCC2)nc2cc(NC(=O)c3ccccc3Cl)ccc21	-12.8%	-17.4%
O=C(NCC1CCOCC1)c1ccc(-c2ccc(F)c(F)c2)c2ccoc12	-7.1%	8.1%
COC(=O)C1=COC(C)C2CN3CCC4(C(=O)Nc5ccccc54)C3CC12 (stereo not given)	-0.5%	-4.4%
Cc1ncc2c(c1CNS(=O)(=O)N(C)C)CCN(C(=O)c1c(F)cccc1F)C2	13.0%	-4.4%
COC1OC2COC(c3ccccc3)OC2C(=O)C1NC(=O)c1ccccc1 (stereo not given)	-13.7%	i
O=C(c1cc(=O)[nH]c2ccc(Br)cc12)N1CCC2(CC1)OCCO2	2.8%	-7.3%
C=CCC[C@H](Cc1ccc(F)cc1)C(=O)O[C@H](CNC(=O)[C@@H](CC=C)CC(=O)N(CCO)Cc1ccccc1)c1ccccc1	-18.1%	2.0%
O=C(C/C=N\OCc1ccc(Cl)cc1Cl)Nc1ccccc1	-10.5%	i
Cc1cccc(C)c1OCC(=O)NNC(=O)CCNC(=O)c1ccc(Br)cc1	-22.2%	-14.4%
Cc1ccc(OCC(=O)Nc2ccc(-c3nc4ccccc4o3)cc2)c(C)c1	6.4%	0.5%
O=C(O)C1OC(C(=O)O)C(C(=O)O)C1C(=O)O (stereo not given)	-8.8%	-13.8%
CC(C)(C)C(=O)N1NC(=Nc2ccccc2)SC1(C)C	-2.5%	?
CCc1cc2c(C)ccc(C)c2nc1SCC(=O)Nc1c[nH]c(=O)[nH]c1=O	-8.2%	i
Cc1cc([N+](=O)[O-])ccc1NCc1cccc2ccccc12	-5.6%	i
CC1CC1C(=O)OCC(=O)Nc1cccc(S(=O)(=O)NC2=NCCCCC2)c1 (stereo not given)	-3.6%	-15.9%
